PKD1 kinase inh = inhibitors of human PKD1 kinase | Q15139 | PKD1 kinase fluorescence polarization assay | inhibition, %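 (about 10 µM by stock and volumes)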 | 200,000 tested, 0.056% active;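 active means inhibition of 50% or more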;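 further: controls were vehicle for no effect and a reference inhibitor for full effect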
HSV replic up = increases HSV replication in cells. HSV replication augmentation in cells, fold increase. maximum fold increase. 220,000 tested, 0.005% active. AID 1956;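 active means peak rise of 1.5-fold or more in the series; tested in PC3 cells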;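 further: first round at 10 µM; read as green reporter fluorescence; hits show the peak of a series up to 25 µM; 1 = signal of infected wells without compound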
GALR2 ag = GALR2 (human) receptor agonism; O43603; GALR2-expressing cells, agonist activation read-out; activation, %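 (tested at 5 µM)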; 140,000 tested, 0.48% active;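 active means above mean plus 3 SD of all compounds, about 5% in these data, not always enough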;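 further: 0% = vehicle buffer wells and 100% = reference agonist at full effect; tested in CHO reporter cells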
Target sequence (O43603 whole entry, looked up): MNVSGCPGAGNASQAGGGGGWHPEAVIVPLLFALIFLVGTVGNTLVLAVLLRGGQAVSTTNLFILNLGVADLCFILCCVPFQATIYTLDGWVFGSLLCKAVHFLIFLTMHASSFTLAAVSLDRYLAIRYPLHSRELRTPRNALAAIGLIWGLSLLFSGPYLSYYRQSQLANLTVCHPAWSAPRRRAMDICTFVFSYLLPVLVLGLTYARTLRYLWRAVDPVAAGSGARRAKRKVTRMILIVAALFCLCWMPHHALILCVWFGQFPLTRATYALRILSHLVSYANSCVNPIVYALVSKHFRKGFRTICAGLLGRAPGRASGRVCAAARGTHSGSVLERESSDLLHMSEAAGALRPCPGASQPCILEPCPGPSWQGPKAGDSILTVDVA
RGS16-Gao = RGS16-Galphao interaction regulator (human). binding response (% of control), % at 10 µM. bead-based flow cytometry RGS16-Galphao binding, fluorescence; actives lie on both sides. 220,000 tested, 0.38% active;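 active means below 25% or above 175%, edge rows of some plates excepted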;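 further: Galphao activated by GDP with aluminum fluoride before binding; 100% = wells without compound and 0% = beads without RGS; some results beyond the cut were filed as inactive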
Target sequence (O15492 whole entry, looked up): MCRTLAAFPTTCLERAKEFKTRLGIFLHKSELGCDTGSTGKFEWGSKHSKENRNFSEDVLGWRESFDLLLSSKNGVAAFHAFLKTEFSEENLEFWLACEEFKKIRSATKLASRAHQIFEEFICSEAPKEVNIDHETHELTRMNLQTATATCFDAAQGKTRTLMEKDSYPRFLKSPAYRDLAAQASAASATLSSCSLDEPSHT
Target sequence (P09471 whole entry, looked up): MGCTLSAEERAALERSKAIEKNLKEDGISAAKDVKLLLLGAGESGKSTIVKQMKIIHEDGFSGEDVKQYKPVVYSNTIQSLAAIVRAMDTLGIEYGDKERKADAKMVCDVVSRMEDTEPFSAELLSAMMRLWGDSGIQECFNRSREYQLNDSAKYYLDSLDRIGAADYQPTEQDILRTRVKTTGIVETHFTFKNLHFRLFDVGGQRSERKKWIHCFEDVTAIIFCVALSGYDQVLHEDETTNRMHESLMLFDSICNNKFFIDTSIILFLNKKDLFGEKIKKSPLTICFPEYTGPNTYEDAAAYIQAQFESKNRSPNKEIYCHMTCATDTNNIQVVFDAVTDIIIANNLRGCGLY
Insulin prom inh = TRM-6 insulin promoter activity inhibition; TRM-6 cells (human fetal islet line), insulin promoter-eGFP reporter, imaging; reporter expression induced with tamoxifen; inhibition, % at 2 µM; 130,000 tested, 0.9% active; AID 1273;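 active means inhibition above the mean plus 3 SD, with well images judged a real hit on visual review, cut at about 60% in these data, passing the limit was not always enough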
Insulin prom inh cell count = further read-out of Insulin prom inh, marked with its call; normalized cell count, %; measured here: cell count, toxicity; reference of the scale not given here;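 cells exposed to compound for 48 h; stained nuclei by imaging scaled within each plate; lower means fewer cells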
HSV replic up primary fold = recorded beside HSV replic up, whose call it bears; fold increase; compound at 10 µM; measured here: primary screen fold increase 10 uM; tested in PC3 cells;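 GFP signal in the first replicate; 1 = infected wells without compound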
* hit, by the source's call; i = inactive; . = not tested or not shown.

SMILES	PKD1 kinase inh	HSV replic up	HSV replic up primary fold	GALR2 ag	RGS16-Gao	Insulin prom inh	Insulin prom inh cell count
Cc1nonc1NC(=O)c1ccccc1Br	-1	i	0.85	0.6	99	-45	111
COc1cccc(CN2CCN(Cc3nc(-c4cccs4)oc3C)CC2CCO)c1 (stereo unspecified)	-3	i	0.86	.	105	.	.
C#CCONC(=O)c1cc(OCC(F)(F)F)ccc1OCC(F)(F)F	-4	i	0.95	-1.7	154	-4	157
Cc1ccc(OCC(=O)Nc2sc3c(c2C#N)CCC3)cc1C	-9	i	1	1.1	94	14	103
COc1ccccc1-c1nc(C(F)(F)F)c(OC)o1	-6	i	1.1	-1.2	97	-171	59
O=C(Nc1nccs1)c1ccc(NC(=O)c2ccco2)cc1	-4	i	0.97	-1.9	102	3	56
C=CCOc1ccc2c(OC)c3ccoc3nc2c1OC	0	i	0.91	-1.7	54	62	166
CC(=O)/C(=N/Nc1ccccc1)N1CCOCC1	-5	i	1.2	-0.3	100	13	124
Cc1ccc(C(=O)NC2(C(F)(F)F)N=C3SCCN3C2=O)cc1 (stereo unspecified)	0	i	1	-1.7	105	28	125
CC(=O)NC1C(=O)N=C(SCc2ccccc2)NC1=O (stereo unspecified)	2	i	0.85	-1.3	87	0	52
COc1cc(/C=C/C(=O)O)ccc1OS(=O)(=O)c1cc(C)ccc1C	6	i	0.95	.	104	17	108
CC(C)Cn1c(Cc2ccccc2)n[nH]c1=S	-3	i	0.96	-2.6	94	0	92
CCOC(=O)C1CCCN(C(=O)Cc2ccc(C)cc2)C1 (stereo unspecified)	-8	i	1	-3.1	101	-4	106
CC(C)(C)c1ccc(Cn2nc(CC(=O)O)c3ccccc3c2=O)cc1	6	i	0.93	.	106	-272	80
O=C(Cc1ccc(Br)cc1)OCC(=O)N1CCc2ccccc2C1	-11	i	0.99	-0.7	102	.	.
C/C(CC(=O)Nc1ccc([N+](=O)[O-])cc1)=N/NC(=O)C1C2CCCCC21 (stereo unspecified)	.	i	1	.	98	.	.
O=C(NC1C2CC3CC(C2)CC1C3)C1CC1 (stereo unspecified)	-10	i	0.84	-0.9	90	8	115
Cc1ccc(Oc2nc3c(c(=O)n(C)c(=O)n3C)n2C)cc1C	12	i	0.93	.	97	.	.
COc1ccc(CCNC(=O)C(=O)NCC2CCCO2)cc1OC (stereo unspecified)	-8	i	0.65	-0.9	108	-15	124
COc1ccccc1NC(=O)C1=C(C)NC(=O)NC1c1cc(C)cs1 (stereo unspecified)	-3	i	1	-2.0	165	-111	102
CCn1c(=O)oc2cc(NC(=O)CCl)ccc21	4	i	0.88	.	93	.	.
Cc1ccc(C)c(NC(=O)CSc2nc(N)c(NC(=O)c3cccs3)c(=O)[nH]2)c1	-19	i	0.84	-0.7	106	-10	106
Brc1cc(Br)c2ncnc(N3CCCCC3)c2c1	-9	i	0.66	-2.2	95	-29	111
Cc1cc(OCc2nnc(SCC(=O)OC3CCCCC3)o2)ccc1Cl	-2	i	0.81	-1.0	98	-91	137
O=C(NC1CCN(C(=S)NCCc2ccccc2)CC1)C1CCCCC1	4	i	0.99	.	105	17	68
O=C(COC(=O)CC1CC2CCC1C2)NC(=O)NCc1ccco1 (stereo unspecified)	5	i	0.98	-1.8	101	45	112
CCCn1c(-c2ccncc2)n[nH]c1=S	-5	i	0.97	.	97	.	.
O=C(O)c1ccccc1C(=O)c1ccc2c(c1)N(Cc1cccc(F)c1)C(=O)CO2	3	i	0.84	.	102	-86	124
O=c1cc(O)c2ccccc2n1Cc1ccccc1F	2	i	0.98	.	107	9	110
CCOc1ccc(NC(=O)C(C)O)c(NS(=O)(=O)c2ccc(CCNC(C)=O)cc2)c1 (stereo unspecified)	4	i	0.84	-2.6	88	-9	100

Full records as entered above. Order of values: PKD1 kinase inh	HSV replic up	HSV replic up primary fold	GALR2 ag	RGS16-Gao	Insulin prom inh	Insulin prom inh cell count
CCn1c(=O)oc2cc(NC(=O)CCl)ccc21 reads 4	i	0.88	.	93	.	.
CC(=O)NC1C(=O)N=C(SCc2ccccc2)NC1=O (stereo unspecified) reads 2	i	0.85	-1.3	87	0	52

New compounds follow.
SMILES	PKD1 kinase inh	HSV replic up	HSV replic up primary fold	GALR2 ag	RGS16-Gao	Insulin prom inh	Insulin prom inh cell count
COc1ccc(Cc2nnc(NC(=O)c3cccc([N+](=O)[O-])c3C)s2)cc1	-9	i	0.85	-1.4	102	29	73
Cc1ccc(Oc2nnc(-c3cccs3)c3ccccc23)cc1	-10	i	1.1	-1.5	106	81*	114*
O=c1cc(CN2CCN(c3ccccc3)CC2)c2c(ccc3ccccc32)o1	-7	i	0.91	0.3	96	30	132
Cc1ccc(N2C(=O)C(Cl)=C(Nc3c(C)n(C)n(-c4ccccc4)c3=O)C2=O)cc1	11	i	0.84	-1.7	105	.	.
Cc1noc(/C=C/N(C)C)c1S(=O)(=O)NC1CCCCC1	-4	i	0.97	-1.1	103	.	.
COc1ccc(-c2n[nH]c(=S)n2-c2ccc(C)cc2)cc1	.	i	0.84	.	106	.	.
O=C(NC(=S)Nc1ccccc1O)c1ccc(-c2ccc(Cl)cc2)o1	0	i	0.99	-1.7	99	-19	103
CCN1CCN(CC(=O)Nc2ccccc2)C(=O)C1=O	-3	i	0.92	-2.3	100	.	.
CCC(=O)Nc1cccc(-c2cc3ccccc3oc2=O)c1	-7	i	0.81	.	104	.	.
O=C(CSc1nnnn1C1CCCCC1)Nc1ccccc1F	-2	i	1	.	111	13	106
N#Cc1ccc(-c2csc(NC(=O)c3ccc(S(=O)(=O)N4CCc5ccccc5C4)cc3)n2)cc1	7	i	0.88	-1.6	103	.	.
C/C=C/c1ccc(OCCCCN2CCC(C)CC2)c(OC)c1	-4	i	1.1	.	95	.	.
Fc1cccc(C[n+]2csc3ccccc32)c1	-10	i	1.2	-2.5	37	11	64
Oc1ccccc1/C=N/c1c(-c2ccco2)nc2ccccn12	-2	i	1.1	-1.5	-194	42	110
CCn1ccc(C(=O)Nc2ccccc2SC)n1	6	i	1.1	.	104	20	73
O=C(c1cnn2c(C(F)(F)F)cc(-c3ccc4c(c3)OCO4)nc12)N1CCCC1	-10	i	0.94	-2.5	65	36	131
COc1ccc(C(=O)Nc2ccc(N3CCN(C(C)=O)CC3)cc2)cc1[N+](=O)[O-]	-7	i	0.96	.	105	.	.
Cc1cc(C)c2oc(C(=O)Nc3nnc(C(C)C)s3)cc(=O)c2c1	1	i	0.86	-0.9	97	-128	120
Cc1cc(C(=O)CSc2nnc(-c3ccccc3F)o2)c(C)n1Cc1cccs1	5	i	1	-1.7	96	-33	85
O=C(CSCc1c(Cl)cccc1Cl)Nc1nccs1	-7	i	0.98	-0.5	98	3	110
CCCC(=O)Nc1ccc(-c2cnc(-c3ccc(NC(=O)CCC)cc3)nc2)cc1	-13	i	0.97	-1.6	102	.	.
O=c1[nH][nH]c2c(N=Cc3ccccc3O)ccc(F)c12	.	i	0.99	.	75	.	.
O=C(/C=C/c1ccccc1Cl)c1cccnc1	7	i	0.96	-0.5	95	-22	74
CC(C)Cc1nnc(NC(=O)CSc2nc(=O)cc(N)n2-c2ccccc2)s1	-6	i	0.99	-2.1	109	20	103
COc1ccc(N2CC(C(=O)NCCC3=CCCCC3)CC2=O)cc1 (stereo unspecified)	-4	i	0.77	-0.3	101	.	.
CCN1CCN(C(=O)c2cc3cc4cc(OC)ccc4nc3s2)CC1	3	.	.	-1.1	104	.	.
Cc1cc(=O)n2nc(N3CCCC3C(=O)NCCCN3CCCCC3)sc2n1 (stereo unspecified)	-6	i	0.96	-1.9	97	38	101
O=C(Cn1cnc2c(nnn2-c2ccccc2)c1=O)N1CCOCC1	3	i	0.99	-1.6	102	.	.
CCC(=O)N1CCC2(CC1)Oc1ccc(Cl)cc1C(=O)C21CC(c2cccnc2)=NO1 (stereo unspecified)	.	i	0.65	.	104	.	.
CCOc1ccc(Cn2nnc(C(=O)Nc3ccc(OC)cc3OC)c2N)cc1	-11	i	0.77	-0.5	104	.	.
CCOC(=O)C1CCCc2c1[nH]c1c(C(N)=O)cccc21 (stereo unspecified)	-7	i	0.87	-0.5	101	.	.
CN(c1ccc(C(=O)NC2CC3CCC2C3)cc1)S(C)(=O)=O (stereo unspecified)	-9	i	0.85	-1.2	101	-32	277
Cc1ccc(-c2cc(C(F)F)n3ncc(C(=O)N4CCN(c5ccccn5)CC4)c3n2)cc1	6	i	0.9	1.8	104	.	.
O=S(=O)(c1ccccc1)c1nc(-c2ccco2)oc1NCCCN1CCOCC1	8	i	0.92	-1.7	119	-4	123
COc1ccc(S(=O)(=O)NC(CC(=O)NCC2CCCO2)c2ccco2)cc1 (stereo unspecified)	-4	i	0.99	-1.2	106	.	.
Cc1cccc(-n2c(C)cc(/C=N/NC(N)=S)c2C)c1	-8	i	1.1	-0.9	73	.	.
COc1ccc(Cl)cc1NC(=O)c1[nH]nc(OC)c1[N+](=O)[O-]	-4	i	0.99	.	101	18	95
CCS(=O)(=O)Nc1ccc(C2=NN(C(C)=O)C(c3cccs3)C2)cc1 (stereo unspecified)	-10	.	.	.	103	54	74
O=C1NC2CCc3nc4ccccc4c(=O)n3C2=Nc2ccccc21 (stereo unspecified)	3	i	0.78	.	99	.	.
COC(=O)C1=C(CSCc2ccco2)NC(=O)NC1c1cc(C)ccc1C (stereo unspecified)	2	i	1	-1.9	105	-27	109
Cc1cc(SCC(=O)N/N=C/c2ccco2)nc2ccccc12	-3	i	1.2	.	93	32	64
CCN(CCO)c1ccc(-n2c(N)c(C(=O)OC)c3nc4ccccc4nc32)cc1	-4	i	0.86	0.0	99	-15	96
CS/C(=N\S(=O)(=O)c1cccs1)Nc1ccc(Br)cc1F	5	i	0.97	-1.6	102	-21	82
Cc1ccc(C2CC(c3ccco3)n3ncnc3N2)cc1 (stereo unspecified)	-9	i	0.88	-2.2	108	.	.
CCC(=O)Nc1nc2ccccc2n1Cc1ccccc1C	-4	i	0.86	-1.9	104	.	.
Cc1cc(C)cc(C(=O)n2cnnc2N)c1	1	i	0.97	-1.3	116	25	134
O=C(NCCc1ccccc1)c1cc(S(=O)(=O)N2CCOCC2)ccc1F	3	i	0.94	-1.9	102	3	77
COc1cccc(-c2nc(CS(=O)CC(=O)NC3CC3)c(C)o2)c1 (stereo unspecified)	-9	i	1.1	-2.6	100	.	.
CCOc1ccc(Nc2nc3ccccc3n3nnnc23)cc1	-4	i	0.94	0.7	106	.	.
COc1ccc(-c2cc(=O)c3cc(C)ccc3[nH]2)cc1	-2	i	0.77	-3.0	98	29	126
CCOc1ccc(C/C(O)=C2\C(=O)CC(C)(C)CC2=NCC(=O)O)cc1OCC	0	i	1	.	104	35	104

17 neighbouring records out of the list so far:
SMILES	PKD1 kinase inh	HSV replic up	HSV replic up primary fold	GALR2 ag	RGS16-Gao	Insulin prom inh	Insulin prom inh cell count
COc1ccc(S(=O)(=O)NC(CC(=O)NCC2CCCO2)c2ccco2)cc1 (stereo unspecified)	-4	i	0.99	-1.2	106	.	.
Cc1cccc(-n2c(C)cc(/C=N/NC(N)=S)c2C)c1	-8	i	1.1	-0.9	73	.	.
COc1ccc(Cl)cc1NC(=O)c1[nH]nc(OC)c1[N+](=O)[O-]	-4	i	0.99	.	101	18	95
CCS(=O)(=O)Nc1ccc(C2=NN(C(C)=O)C(c3cccs3)C2)cc1 (stereo unspecified)	-10	.	.	.	103	54	74
O=C1NC2CCc3nc4ccccc4c(=O)n3C2=Nc2ccccc21 (stereo unspecified)	3	i	0.78	.	99	.	.
COC(=O)C1=C(CSCc2ccco2)NC(=O)NC1c1cc(C)ccc1C (stereo unspecified)	2	i	1	-1.9	105	-27	109
Cc1cc(SCC(=O)N/N=C/c2ccco2)nc2ccccc12	-3	i	1.2	.	93	32	64
CCN(CCO)c1ccc(-n2c(N)c(C(=O)OC)c3nc4ccccc4nc32)cc1	-4	i	0.86	0.0	99	-15	96
CS/C(=N\S(=O)(=O)c1cccs1)Nc1ccc(Br)cc1F	5	i	0.97	-1.6	102	-21	82
Cc1ccc(C2CC(c3ccco3)n3ncnc3N2)cc1 (stereo unspecified)	-9	i	0.88	-2.2	108	.	.
CCC(=O)Nc1nc2ccccc2n1Cc1ccccc1C	-4	i	0.86	-1.9	104	.	.
Cc1cc(C)cc(C(=O)n2cnnc2N)c1	1	i	0.97	-1.3	116	25	134
O=C(NCCc1ccccc1)c1cc(S(=O)(=O)N2CCOCC2)ccc1F	3	i	0.94	-1.9	102	3	77
COc1cccc(-c2nc(CS(=O)CC(=O)NC3CC3)c(C)o2)c1 (stereo unspecified)	-9	i	1.1	-2.6	100	.	.
CCOc1ccc(Nc2nc3ccccc3n3nnnc23)cc1	-4	i	0.94	0.7	106	.	.
COc1ccc(-c2cc(=O)c3cc(C)ccc3[nH]2)cc1	-2	i	0.77	-3.0	98	29	126
CCOc1ccc(C/C(O)=C2\C(=O)CC(C)(C)CC2=NCC(=O)O)cc1OCC	0	i	1	.	104	35	104

Compound activity (PubChem BioAssay)
